CBX7 AlphaScr – inhibitors of human CBX7 binding to H3K27me3 peptide; AlphaScreen His6-CBX7 / biotin-H3K27me3 peptide binding; active compounds read low; normalised signal (fraction of DMSO) (no concentration beside the values); 66,000 compounds, 1.1% hits; in the data active = normalised signal below about 0.5;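 note: 100 nL library stock added to about 20 µL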
Target sequence (O95931 whole entry, looked up): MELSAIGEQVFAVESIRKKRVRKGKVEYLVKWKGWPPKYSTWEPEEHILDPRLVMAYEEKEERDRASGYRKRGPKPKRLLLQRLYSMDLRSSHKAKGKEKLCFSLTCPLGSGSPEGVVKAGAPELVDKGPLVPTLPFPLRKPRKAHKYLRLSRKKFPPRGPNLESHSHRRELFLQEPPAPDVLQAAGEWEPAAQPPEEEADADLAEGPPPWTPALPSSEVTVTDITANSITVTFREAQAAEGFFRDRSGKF
CBX7 AlphaScr z-score – further read-out of CBX7 AlphaScr, marked with its call; z-score; measured here: z-score of CBX7 signal; some inactives read as strong as hits; reference of the scale not given here;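 same signal on another scale; lower means less binding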
* = called active by the depositor.

1) O=C(CCc1nc2ccccc2[nH]1)N1CCN(c2ccc(F)cc2)CC1
  CBX7 AlphaScr: 1.08	CBX7 AlphaScr z-score: 2.94

2) CCOc1ccc(C2C(N3C(=O)c4ccccc4C3=O)C(=O)N2c2ccc(Br)c(C)c2)cc1 (stereo not drawn)
  CBX7 AlphaScr: 0.927	CBX7 AlphaScr z-score: -1.61

3) CC1(C)CC(=O)C2=C(C1)c1c(ccc3ncccc13)NC2c1ccc(Cl)cc1 (stereo not drawn)
  CBX7 AlphaScr: 1.08	CBX7 AlphaScr z-score: 0.969

4) COc1ccc(-c2nc(C(=O)NC3CCCc4ccccc43)c(C)o2)cc1OC (stereo not drawn)
  CBX7 AlphaScr: 0.869	CBX7 AlphaScr z-score: -2.15

5) O=C(NCc1ccc(F)cc1)c1ccc2c(c1)N(Cc1ccc(F)cc1Cl)C(=O)CS2
  CBX7 AlphaScr: 1.01	CBX7 AlphaScr z-score: 0.271

6) COc1cccc(-c2nn(C)c3sc(C(=O)NCCCN4CCN(C)CC4)cc23)c1
  CBX7 AlphaScr: 1.02	CBX7 AlphaScr z-score: 0.476

7) COc1cc(OC)cc(-c2cc3nc(C)c(CCC(=O)Nc4ccc(C)cc4)c(C)n3n2)c1
  CBX7 AlphaScr: 1.02	CBX7 AlphaScr z-score: 0.305

8) CCc1ccc(NC(=O)Cn2cc(S(=O)(=O)c3ccc(Cl)cc3)c(=O)c3cc(C)ccc32)cc1
  CBX7 AlphaScr: 0.952	CBX7 AlphaScr z-score: -1.58

9) COc1ccc(CCNC(=O)c2ccc3nc(N4CCOCC4)sc3c2)cc1OC
  CBX7 AlphaScr: 1.03	CBX7 AlphaScr z-score: 1.35

10) Cc1cccc(-n2c(Cc3cc(=O)[nH]c(=O)[nH]3)nnc2SCC(=O)Nc2ccccc2C)c1
  CBX7 AlphaScr: 1.05	CBX7 AlphaScr z-score: 0.192

11) COc1ccc(C(=O)N2CC(=O)Nc3ccc(Cl)cc3C2c2ccccc2)cc1 (stereo not drawn)
  CBX7 AlphaScr: 0.58	CBX7 AlphaScr z-score: -4.01

12) O=C(O)CCc1ccc(-c2ccccc2)n1-c1cccc(C(F)(F)F)c1
  CBX7 AlphaScr: 0.888	CBX7 AlphaScr z-score: -1.93

13) O=C(NCc1ccccc1Cl)C1CCN(S(=O)(=O)c2cnc[nH]2)CC1
  CBX7 AlphaScr: 0.89	CBX7 AlphaScr z-score: -1.8

14) CCC(C)NC(=O)CSCc1cnn(-c2ccccc2)c1-n1cccc1 (stereo not drawn)
  CBX7 AlphaScr: 0.993	CBX7 AlphaScr z-score: -0.34

15) CC12CN3CC(C)(CN(C1)C(=O)c1ccccc1C3=O)C2=O
  CBX7 AlphaScr: 1.02	CBX7 AlphaScr z-score: 0.429

16) COc1ccc(Nc2cc(C(=O)NC3CCCC3)c3ccccc3n2)cc1OC
  CBX7 AlphaScr: 0.894	CBX7 AlphaScr z-score: -1.26

17) Cc1nc2nc(SCC(=O)NCCC(C)C)nn2c(C)c1Cc1ccccc1
  CBX7 AlphaScr: 1.29	CBX7 AlphaScr z-score: 1.72

18) CCc1ccc(NC(=O)C(Cc2ccccc2)NS(=O)(=O)c2cccs2)cc1 (stereo not drawn)
  CBX7 AlphaScr: 1.03	CBX7 AlphaScr z-score: 1.09

19) O=C(C1CCCN(S(=O)(=O)c2cccnc2)C1)N1CC=C(c2ccccc2)CC1 (stereo not drawn)
  CBX7 AlphaScr: 0.992	CBX7 AlphaScr z-score: -0.268

20) Cc1cccc(N2CCN(c3nnc(Cc4ccncc4)c4ccccc34)CC2C)c1 (stereo not drawn)
  CBX7 AlphaScr: 0.92	CBX7 AlphaScr z-score: -3.2

21) Cc1cccc(OCCn2c(C3CC(=O)N(c4cc(C)ccc4C)C3)nc3ccccc32)c1 (stereo not drawn)
  CBX7 AlphaScr: 0.781	CBX7 AlphaScr z-score: -1.37

22) COc1ccc(CC(=O)Nc2c3c(nn2-c2ccc(Oc4ccccc4)cc2)CSC3)cc1
  CBX7 AlphaScr: 0.944	CBX7 AlphaScr z-score: -1.39

23) O=C(Nc1ccc2oc(-c3ccncc3)nc2c1)C(c1ccccc1)c1ccccc1
  CBX7 AlphaScr: 0.931	CBX7 AlphaScr z-score: -0.748

24) C=CCNC(=O)Cc1c(C)n(C(=O)c2ccc(Cl)cc2)c2ccc(OC)cc12
  CBX7 AlphaScr: 0.996	CBX7 AlphaScr z-score: -0.0615

25) COc1ccccc1C(=O)NC(C)C(c1cccs1)N1CCN(C)CC1 (stereo not drawn)
  CBX7 AlphaScr: 1.01	CBX7 AlphaScr z-score: 0.189

26) COc1ccc2oc(-c3ccc(NC(=O)c4cccc(C)c4)cc3)nc2c1
  CBX7 AlphaScr: 1.07	CBX7 AlphaScr z-score: 1.44

27) CCn1c(C)nc2cc(S(N)(=O)=O)ccc21
  CBX7 AlphaScr: 0.97	CBX7 AlphaScr z-score: -0.736

28) COc1ccc(NC(=O)C2CCCN2S(=O)(=O)c2ccc3c(c2)n(C)c(=O)c(=O)n3C)cc1 (stereo not drawn)
  CBX7 AlphaScr: 1.04	CBX7 AlphaScr z-score: 0.0577

29) O=C(NCc1ccccc1)C(=O)NCc1cccnc1
  CBX7 AlphaScr: 1.03	CBX7 AlphaScr z-score: 0.871

30) Cc1ccc(-c2nc(Nc3cccc(Cl)c3)sc2C)cc1
  CBX7 AlphaScr: 0.923	CBX7 AlphaScr z-score: -2.06

6 entries from above, arranged by the value under CBX7 AlphaScr z-score, largest number first.
nr	Structure	CBX7 AlphaScr z-score
25	COc1ccccc1C(=O)NC(C)C(c1cccs1)N1CCN(C)CC1 (stereo not drawn)	0.189
23	O=C(Nc1ccc2oc(-c3ccncc3)nc2c1)C(c1ccccc1)c1ccccc1	-0.748
16	COc1ccc(Nc2cc(C(=O)NC3CCCC3)c3ccccc3n2)cc1OC	-1.26
21	Cc1cccc(OCCn2c(C3CC(=O)N(c4cc(C)ccc4C)C3)nc3ccccc32)c1 (stereo not drawn)	-1.37
30	Cc1ccc(-c2nc(Nc3cccc(Cl)c3)sc2C)cc1	-2.06
20	Cc1cccc(N2CCN(c3nnc(Cc4ccncc4)c4ccccc34)CC2C)c1 (stereo not drawn)	-3.2

Looked up by compound from the list above (4):
21) Cc1cccc(OCCn2c(C3CC(=O)N(c4cc(C)ccc4C)C3)nc3ccccc32)c1 (stereo not drawn)
  CBX7 AlphaScr: 0.781	CBX7 AlphaScr z-score: -1.37

11) COc1ccc(C(=O)N2CC(=O)Nc3ccc(Cl)cc3C2c2ccccc2)cc1 (stereo not drawn)
  CBX7 AlphaScr: 0.58	CBX7 AlphaScr z-score: -4.01

30) Cc1ccc(-c2nc(Nc3cccc(Cl)c3)sc2C)cc1
  CBX7 AlphaScr: 0.923	CBX7 AlphaScr z-score: -2.06

6) COc1cccc(-c2nn(C)c3sc(C(=O)NCCCN4CCN(C)CC4)cc23)c1
  CBX7 AlphaScr: 1.02	CBX7 AlphaScr z-score: 0.476

Further results follow.
31) COc1ccc(C(=O)Nc2nc(N3C(=O)c4ccccc4C3=O)n(-c3ccccc3)n2)cc1
  CBX7 AlphaScr: 0.202*	CBX7 AlphaScr z-score: -8.56*

32) COc1ccccc1C(=O)Nc1c(-c2ccccc2)nc2ccccn12
  CBX7 AlphaScr: 0.989	CBX7 AlphaScr z-score: -0.187

33) O=C(CSc1oc(-c2ccc(F)cc2)nc1S(=O)(=O)c1ccccc1)Nc1ccc(F)cc1
  CBX7 AlphaScr: 0.941	CBX7 AlphaScr z-score: -0.486

34) Cc1ccc2nc(NC(=O)C3CCN(S(=O)(=O)c4cccs4)CC3)sc2c1
  CBX7 AlphaScr: 0.961	CBX7 AlphaScr z-score: -0.708

35) Cc1ccc(C(C)C)cc1OCC(O)Cn1cnc2ccccc21 (stereo not drawn)
  CBX7 AlphaScr: 0.815	CBX7 AlphaScr z-score: -2.55

36) CCCOc1ccc(C(=O)Nc2ccc3oc(-c4ccccc4)nc3c2)cc1
  CBX7 AlphaScr: 1.01	CBX7 AlphaScr z-score: 0.501

37) COc1ccc(CCNC(=O)CCc2nc(-c3ccccc3F)no2)cc1OC
  CBX7 AlphaScr: 1.13	CBX7 AlphaScr z-score: 3.97

38) Cc1nc2cc(-c3cccc(F)c3)nn2c(C)c1CCC(=O)Nc1cccc(F)c1
  CBX7 AlphaScr: 1.04	CBX7 AlphaScr z-score: 0.814

39) CCCCN(C)CCNC(=O)Cn1ncc2c1-c1ccccc1OC2
  CBX7 AlphaScr: 1.08	CBX7 AlphaScr z-score: 2.43

40) Cc1ccc(NC(=O)CN(C)S(=O)(=O)c2cccc3cccnc23)cc1C
  CBX7 AlphaScr: 0.872	CBX7 AlphaScr z-score: -1.52

41) Cc1ccn2c(-c3csc(Nc4cccc(C(=O)O)c4)n3)c(C)nc2c1
  CBX7 AlphaScr: 0.79	CBX7 AlphaScr z-score: -2.41

42) CCN(CC)C(C(=O)Nc1ccc2c(c1)OCO2)c1ccccc1 (stereo not drawn)
  CBX7 AlphaScr: 1.18	CBX7 AlphaScr z-score: 1.77

43) Cc1c(C(=O)Nc2cccc(Cl)c2)oc2ccc(S(=O)(=O)N3CCCC3)cc12
  CBX7 AlphaScr: 1.02	CBX7 AlphaScr z-score: 0.385

44) Clc1ccc(-c2nc(-c3cccnc3)no2)cc1
  CBX7 AlphaScr: 1.12	CBX7 AlphaScr z-score: 1.11

45) O=C(Cn1nc(-c2ccccc2)ccc1=O)NCCN1CCN(Cc2ccccc2)CC1
  CBX7 AlphaScr: 0.975	CBX7 AlphaScr z-score: -0.75

46) Cc1cc(C)c(Cc2c(C)nc3c(C(=O)NCc4ccccc4Cl)cnn3c2C)c(C)c1
  CBX7 AlphaScr: 0.984	CBX7 AlphaScr z-score: -0.349

47) Cc1c(C(=O)NCc2ccc3c(c2)OCO3)sc2nc(-c3ccc(F)cc3)cn12
  CBX7 AlphaScr: 1.08	CBX7 AlphaScr z-score: 1.5

48) Cc1n[nH]c(=O)nc1NCc1ccc(Cl)cc1
  CBX7 AlphaScr: 0.996	CBX7 AlphaScr z-score: -0.118

49) COc1ccccc1-c1c(C)nn2c(NCc3ccc(F)cc3)cc(C)nc12
  CBX7 AlphaScr: 1.01	CBX7 AlphaScr z-score: 0.0345

50) CCc1ccc(NS(=O)(=O)c2ccc3[nH]cc(C(=O)NCCCOC)c(=O)c3c2)cc1
  CBX7 AlphaScr: 1	CBX7 AlphaScr z-score: 0.0508

51) Cc1ccc2oc(-c3ccc(NC(=O)c4ccccc4C)cc3)nc2c1
  CBX7 AlphaScr: 0.858	CBX7 AlphaScr z-score: -1.45

52) O=c1cc(N2CCOCC2)[nH]c(=O)n1-c1ccc(Br)cc1
  CBX7 AlphaScr: 1.06	CBX7 AlphaScr z-score: 1.03

53) Cc1ccc(Cl)cc1N1CCN(C(=O)CCn2c(=O)[nH]c3ccsc3c2=O)CC1
  CBX7 AlphaScr: 1.17	CBX7 AlphaScr z-score: 0.802

54) CCOc1ccc(C(=O)Nc2cc(-c3nn4c(C)nnc4s3)ccc2C)cc1
  CBX7 AlphaScr: 1.03	CBX7 AlphaScr z-score: 0.738

55) O=C(NC1CCCCC1)C1CCN(c2nc3ccccc3[nH]2)CC1
  CBX7 AlphaScr: 1.01	CBX7 AlphaScr z-score: 0.486

56) Cc1onc(-c2ccccc2)c1C(=O)Nc1nc2c(s1)C(=O)CC(C)(C)C2
  CBX7 AlphaScr: 0.793	CBX7 AlphaScr z-score: -2.45

57) COc1ccc(CN2C(=O)CCC2(C)C(=O)NC2CCCC2)c(OC)c1 (stereo not drawn)
  CBX7 AlphaScr: 1.01	CBX7 AlphaScr z-score: 0.223

58) O=C(CCCCn1c(=O)[nH]c2ccccc2c1=O)NCCc1c[nH]c2ccccc12
  CBX7 AlphaScr: 0.809	CBX7 AlphaScr z-score: -0.535

59) Cc1cccc(C)c1Nc1c(-c2ccc(N(C)C)cc2)nc2cnccn12
  CBX7 AlphaScr: 0.759	CBX7 AlphaScr z-score: -2.65

60) CCOc1ccc2nc(N3CCCC(C(=O)NCCc4ccc(OC)cc4OC)C3)sc2c1 (stereo not drawn)
  CBX7 AlphaScr: 0.721	CBX7 AlphaScr z-score: -7.54

61) COc1ccc(N2CCC(CNS(=O)(=O)c3cccc(Cl)c3)C2)cc1 (stereo not drawn)
  CBX7 AlphaScr: 0.474*	CBX7 AlphaScr z-score: -20.4*

62) Cc1ccc(C(=O)Nc2c(C(=O)c3ccc(Cl)cc3)oc3ccccc23)cc1
  CBX7 AlphaScr: 1.17	CBX7 AlphaScr z-score: 0.747

63) CS(=O)(=O)c1ccc2nc(NC(=O)c3ccccc3Cl)sc2c1
  CBX7 AlphaScr: 0.954	CBX7 AlphaScr z-score: -1.16

64) CN1C(=O)CC(=O)N(C)c2cc(S(=O)(=O)N3CCc4ccccc43)ccc21
  CBX7 AlphaScr: 1.06	CBX7 AlphaScr z-score: 1.77

Screening results from PubChem BioAssay.

Only part of the results is shown; the hit share may differ from the screen's.
